Screening results from PubChem.
PABP FP inh – blocks human PABP binding to poly(A) RNA; P11940; inhibition, % at 35 µM; 290,000 tested, 1% active; fluorescence polarization; AID 2014;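 active = 50% or more with normal probe brightness, or confirmed in later tests; inconclusive = above 50% with abnormal brightness, or retests that disagree; inactive = below 50% or failed in later tests; about a fifth of its hits are not listed in these tables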;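 also: calls also rest on retests at 20 µM and on dose response follow-up; controls were probe without protein and protein plus probe with vehicle; some compounds called inactive have numbers as strong as hits; many hits fall short of the cut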
HIV Env fusion – inhibitors of HIV Env-mediated cell fusion | HeLa-JRFL Env/CEM21 cell fusion, luciferase | inhibition, % at 12.3 µM | 360,000 tested, 1.1% active | AID 651610;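 active = mean replicate inhibition score of at least 50 and every replicate individually at or above 50; inconclusive = only one of the two criteria met; inactive = mean below 50 and not all replicates reaching 50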;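 also: 0% = plate neutral controls and 100% = maraviroc near 300 nM; one replicate is shown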
Rce1 inhib – inhibitors of yeast Ras-converting enzyme | Q03530 | yeast membranes, quenched prenylated peptide cleavage fluorescence | calls only | 290,000 tested, 0.27% active;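 active = fall in fluorescence gain of 50% or more versus controls, with final raw signal at or below 3038400; inconclusive = same 50% fall but final raw signal above 3038400; inactive = fall in fluorescence gain under 50%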;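 also: plate controls were neutral control wells for no effect and wells lacking membranes for full effect; tested at 10 µM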
Target sequence (Q03530 whole entry, looked up): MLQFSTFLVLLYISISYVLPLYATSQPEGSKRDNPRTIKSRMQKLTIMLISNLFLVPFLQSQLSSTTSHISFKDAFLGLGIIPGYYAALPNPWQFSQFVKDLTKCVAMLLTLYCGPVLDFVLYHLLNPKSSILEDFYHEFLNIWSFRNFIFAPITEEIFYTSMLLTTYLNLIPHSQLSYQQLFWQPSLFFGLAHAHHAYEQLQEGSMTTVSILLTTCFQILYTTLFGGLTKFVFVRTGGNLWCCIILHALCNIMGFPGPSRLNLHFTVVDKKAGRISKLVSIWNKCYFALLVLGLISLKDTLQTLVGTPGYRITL
UUG fidelity – modulators of start codon recognition fidelity in yeast. 350,000 tested, 0.13% active. S. cerevisiae UUG-firefly luciferase reporter, luminescence/redox ratio. AID 602363. activity score, % at 18.7 µM;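 active = replicate mean at a twofold rise or more, about +100% in these data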;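 also: firefly luciferase made from a UUG start codon reports start codon fidelity; reporter light over untreated wells divided by growth signal over untreated wells; some hits fall short of that in this replicate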
CSC inhib – cancer stem cell inhibition | cancer stem cell-like cells viability, luminescence | inhibition, % at 7.5 µM | 300,000 tested, 1.1% active | AID 2717;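 active = mean at 75% or more and at least half the replicates too; inconclusive = mean and replicates disagree; tested in HMLE shEcad cells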;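 also: 0% = median of negative and 100% = median of positive control wells; the first replicate is given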
MT1-MMP act inh – inhibitors of human MT1-MMP activation | GFP/RFP ratio change, % at 20 µM | HT1080 RFP-PRO-GFP cells, GFP/RFP ratio fluorescence, overnight; percent of plate control window, DMSO zero | P50281 | 360,000 tested, 0.061% active;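 active = GFP/RFP ratio change of at least 30% with cell ATP level not reduced by more than half and red fluorescence within 50% of control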; also: strong numbers were not always called active
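Assay system: HT1080 RFP-PRO-GFP cells | Dosing: 20 µM single dose, 1% DMSO | Incubation: Cells overnight before dosing, compound overnight, 37 °C, 5% CO2 | Evaluation: GFP/RFP fluorescence ratio | Control set: DMSO-only wells and HT1080 RFP-L50D-GFP cell wells as references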
eIF4H inh – inhibitors of RNA binding by human eIF4H; Q15056; eIF4H fluorescence polarization binding assay; inhibition, % at 35 µM; 290,000 tested, 0.94% active; AID 2012;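 active = 50% or more with normal probe brightness, or confirmed in later tests; inconclusive = above 50% with abnormal brightness, or retests that disagree; inactive = below 50% or failed in later tests; about a fifth of its hits are not listed in these tables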;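 also: calls also rest on retests at 20 µM and on dose response follow-up; 0% = protein and probe with vehicle and 100% = probe without protein; strong numbers were not always called active; many hits fall short of the cut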
eIF4H inh retest – recorded beside eIF4H inh, whose call it bears; inhibition, %; compound at 20 µM; confirmation average;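 mean of two retest wells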
PABP FP inh retest – also measured in PABP FP inh; calls as there; inhibition, %; compound at 20 µM; confirmation repeats;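 mean of two retest wells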
MT1-MMP act inh RFP – also measured in MT1-MMP act inh; calls as there; RFP signal change, %; measured here: RFP expression control read;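 0 = vehicle wells; hits needed this value within 50% of zero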
Starred values were filed as active, the others as inactive; i = inactive; ? = inconclusive; . = no result given; + = active, no number; & = joins results of further samples.

SMILES | PABP FP inh | HIV Env fusion | Rce1 inhib | UUG fidelity | CSC inhib | MT1-MMP act inh | MT1-MMP act inh RFP | eIF4H inh | others
C/C(CC(=O)NC12CC3CC(CC(C3)C1)C2)=N\NC(=O)Cc1cccs1 | -4 | -9 | i | -28 | -14 | 4 | 6 | -11
CCc1cccc(CC)c1NC(=S)NCCc1ccc(O)c(O)c1 | 0 | -13 | i | -35 | 27 | 10 | -5 | 0
CC(C)C(NC(=S)Nc1ccccc1)C(=O)O (stereo unspecified) | 2 | 2 | i | . | -8 | 4 | 4 | -2
C=C(C)CSC1=C(C#N)C(c2ccsc2)CC(=O)N1 (stereo unspecified) | 7 | -56 | i | 23 | -2 | -4 | -1 | -2
Cc1ccc(-n2ccnc(SCC(=O)NC3CCCC3)c2=O)cc1F | . | -14 | i | 13 | 0 | 1 | -4 | .
CCN1CCN(S(=O)(=O)c2cccc3nsnc23)CC1 | 0 | . | i | -15 | -8 | 3 | 0 | 0
COc1ccc(CNC(=O)CSc2nnc(NC(=O)C3CC3)s2)cc1 | 5 | -7 | i | -5 | -9 | 2 | 2 | -4
CC(=O)Nc1ccc(NC(=O)c2ccccc2S(=O)(=O)c2ccccc2[N+](=O)[O-])cc1 | -7 | 9 | i | . | -9 | 4 | 5 | 5
Cc1ccc(OCc2nnc(SC(C)C(=O)O)n2Cc2ccccc2)cc1 (stereo unspecified) | 3 | 13 | i | . | 2 | 0 | 1 | 2
COc1ccc(CO[C@@H]2O[C@H](CO)[C@@H](O)[C@H](O)[C@H]2NC(C)=O)cc1OC | 3 | -26 | i | -3 | 5 | -1 | 2 | -11
CN(CC1CCCO1)S(=O)(=O)c1ccc(C(=O)Nc2ccc([N+](=O)[O-])cc2)cc1 (stereo unspecified) | -3 | . | i | 15 | 7 | -6 | -29 | -17
O=C1/C(=C\c2cccnc2)CN(Cc2ccccc2)C/C1=C\c1cccnc1 | 4 | . | i | . | 90* | . | . | -6
C/C(=N\NC(=S)Nc1ccc(C)cc1)c1cccc(N)c1 | 18 | -8 | i | . | -6 | 0 | -3 | -2
CC1CCCC(NS(=O)(=O)c2cccc3nsnc23)C1C (stereo unspecified) | -14 | 13 | i | -12 | -3 | 3 | 1 | -4
CNC(=O)c1cc2ncc(C(F)(F)F)cc2s1 | -12 | -10 | i | -6 | -5 | -1 | 1 | 8

Random excerpt: three compounds from above, in no set order.
SMILES | PABP FP inh | HIV Env fusion | Rce1 inhib | UUG fidelity | CSC inhib | MT1-MMP act inh | MT1-MMP act inh RFP | eIF4H inh | others
Cc1ccc(-n2ccnc(SCC(=O)NC3CCCC3)c2=O)cc1F | . | -14 | i | 13 | 0 | 1 | -4 | .
CC(=O)Nc1ccc(NC(=O)c2ccccc2S(=O)(=O)c2ccccc2[N+](=O)[O-])cc1 | -7 | 9 | i | . | -9 | 4 | 5 | 5
C/C(=N\NC(=S)Nc1ccc(C)cc1)c1cccc(N)c1 | 18 | -8 | i | . | -6 | 0 | -3 | -2

More structures.
SMILES | PABP FP inh | HIV Env fusion | Rce1 inhib | UUG fidelity | CSC inhib | MT1-MMP act inh | MT1-MMP act inh RFP | eIF4H inh | others
Cc1c(C(=O)N2CCN(CCc3ccccn3)CC2)oc2ccc(Cl)cc12 | 0 | 3 | i | -9 | -7 | -5 | -4 | 1
CCC(=O)N(CCc1ccccc1)Cc1cc2cccc(C)c2[nH]c1=O | 6 | 7 | i | -22 | -3 | 0 | 2 | -5
COc1ccc(-c2cnc(SCCNC(=O)c3ccc4c(c3)OCO4)[nH]2)cc1 | . | 7 | i | -21 | -9 | -1 | -2 | .
CC(OC(=O)C1=COCCO1)C(=O)NC1CCCC(C)C1C (stereo unspecified) | . | -10 | . | -24 | . | 1 | 0 | .
NC(=O)NC(=O)COC(=O)CCCSc1nc2ccccc2s1 | 28 | 13 | i | -35 | -1 | 4 | 7 | -1
COc1ccccc1N(C(=O)c1snc(C(N)=O)c1N)C(C(=O)NCc1ccccc1)c1ccc(O)cc1 (stereo unspecified) | 3 | 4 | i | 2 | . | -1 | 1 | 9
O=C(COC(=O)c1ccc(F)c([N+](=O)[O-])c1)NC(=O)NCc1ccccc1 | . | -10 | . | -13 | 35 | 3 | -1 | .
Cn1nnnc1SCC(=O)NCCc1ccc(Cl)cc1 | 1 | . | i | . | -23 | 1 | 5 | -2
C[C@H](CO)N1C[C@H](C)[C@H](CN(C)S(=O)(=O)c2ccccc2)OCc2cnnn2CCCC1=O | . | -19 | . | -4&1 | . | 1 | 5 | .
O=C(NCc1cccnc1)c1ccc(Br)o1 | . | . | i | -23 | -5 | 3 | 5 | .
CCOc1ccc(S(=O)(=O)N2CCC(C(=O)NCc3cccnc3)CC2)cc1C | -6 | 9 | i | 2 | -16 | 6 | 1 | -16
O=[N+]([O-])c1ccc(/C=N/Nc2nc(-c3ccccc3)c3cc(Br)ccc3n2)o1 | 21 | 31 | i | -30 | -4 | -22 | -2 | 49
O=C(CCCN1C(=O)c2ccccc2C1=O)N1CCC(c2ccccc2)C1 (stereo unspecified) | -13 | -56 | i | -14 | -11 | 8 | 1 | -4
O=C(COc1ccccc1)N(Cc1nnc(-c2ccccc2Cl)o1)C1CC1 | . | -12 | i | -2 | -12 | 1 | -1 | .
COc1ccc(C2N=C(Nc3ccc(C)cc3)Nc3nc(C)cc(=O)n32)cc1 (stereo unspecified) | -3 | 15 | i | -5 | -3 | 1 | 7 | -7
CCN(c1ccccc1)S(=O)(=O)c1ccc(Cl)c(C(=O)N2CCCC2)c1 | . | 0 | . | 8 | -15 | -1 | -2 | .
C[C@H](NC(=O)c1ncn2c1C(=O)N[C@@H](C)C2)C(=O)OC(C)(C)C | . | -7 | . | -9 | . | -1 | -2 | .
CCn1cc(/C=C(\NC(=O)c2ccccc2OC)C(=O)NCCCn2ccnc2)c2ccccc21 | -6 | -3 | i | . | 9 | 1 | 2 | -16
Cn1c(COc2ccccc2)nnc1SCC(=O)Nc1ccc(N2CCOCC2)cc1 | -4 | 8 | i | -19 | . | 0 | 1 | -5
C(=N\Nc1nc(Nc2ccccc2)nc(N2CCCCC2)n1)/c1ccco1 | -2 | -23 | i | . | -3 | . | . | 0
CCOc1ccc(CCNC(=O)CSc2cc(=O)n(C)c3cc(Cl)ccc23)cc1OCC | 4 | . | i | -6 | -8 | 0 | 0 | -1
COc1cccc(OCC(=O)NNC(=S)Nc2ccc(Cl)cc2Cl)c1 | -1 | 14 | i | . | -5 | -3 | -6 | 4
Cc1ccsc1C(=O)OCC(=O)NCCc1ccccc1 | . | -21 | . | -9 | 12 | 0 | 4 | .
Cc1cccc(CSCCNC(=O)CCSc2ccccc2)c1 | 14 | 12 | . | -6 | 8 | 3 | 6 | 4
Cc1cc(O)c(C2(O)C(=O)Nc3ccccc32)cc1C (stereo unspecified) | 3 | 18 | i | 4 | -13 | 0 | -1 | -10
CCOC(=O)c1ccccc1NC1c2ccccc2C(=O)N1c1cc(C)ccn1 (stereo unspecified) | -3 | -5 | i | 2 | . | -3 | -9 | -5
O=c1c2ccccc2nc2ccccn12 | -7 | -1 | i | . | 16 | 0 | 3 | -12
O=C(CSc1ncc(-c2ccccc2)n1C1CCCC1)N1CCc2ccccc21 | -2 | . | i | 3 | 6 | -3 | -13 | -6
Cc1[nH]c2ccccc2c1/C=N\NC(=O)CNc1ccc2c(c1)OCO2 | -8 | . | i | -11 | 1 | -3 | 9 | 15
Cc1cccc(NS(=O)(=O)c2ccc3c(c2)NC(=O)CC(=O)N3)c1 | -2 | 0 | i | -22 | 2 | -1 | 4 | -4
COc1ccc(C2C(C(=O)NCc3ccccn3)c3cc(OC)c(OC)cc3C(=O)N2C)cc1 (stereo unspecified) | -2 | -62 | . | -13 | -7 | 1 | 8 | -2
O=C(CN1CCN(C2CCCCC2)CC1)c1c[nH]c2ccccc12 | 26 | -18 | i | -9 | 10 | 6 | 4 | 8
CCOC(=O)C(=O)N(CC)C1CCS(=O)(=O)C1 (stereo unspecified) | 4 | -23 | i | -6 | -18 | -1 | 3 | -1
COc1ccccc1-c1coc2c(CN3CCN(C)CC3)c(O)ccc2c1=O | -1 | -15 | + | -15 | -11 | -2 | -2 | 4
COc1ccc(NC(=O)CSc2nnc(C)n2C2CCCCC2)cc1 | 5 | 6 | . | -24 | -1 | 2 | 4 | -20
Cc1c(OC(C(=O)O)c2ccccc2)ccc2c3c(c(=O)oc12)CCC3 (stereo unspecified) | 13 | 10 | i | -9 | . | -5 | 3 | 49
CCn1ccc(C(=O)Nc2ccc3c(c2)CCC3)n1 | 5 | . | i | -31 | 5 | -2 | -1 | -8
Cc1cc(N2CCCC2)c(C)cc1C=O | 7 | ? | i | -11 | 8 | 2 | 1 | 2
O=C(COc1coc(CN2CCCc3ccccc32)cc1=O)Nc1ccc([N+](=O)[O-])cc1 | . | -4 | i | -11 | 9 | -18 | 4 | .
CC(C)(C)NC(=O)NC(=O)COC(=O)COc1ccc(Cl)cc1Cl | -4 | 1 | . | -6 | 1 | 0 | 5 | -2
COC(=O)c1cn(NC(=O)c2ccc(OC)c([N+](=O)[O-])c2)c(=O)c2ccccc12 | 6 | -8 | i | . | -6 | 2 | -1 | 0
O=C(c1ccccc1)N1CCCCC(Sc2nnc3ccccn23)C1=O (stereo unspecified) | 12 | . | i | -13 | -17 | 2 | 2 | 5
CCc1nnc(NS(=O)(=O)c2ccc(Nc3ccc([N+](=O)[O-])c4nonc34)cc2)s1 | 3 | 11 | i | . | -4 | 2 | 2 | 111 | eIF4H inh retest=-15;PABP FP inh retest=12
CCc1c(C)nc2ncnn2c1N1CCC(C(=O)NCc2cccc(OC)c2)CC1 | 5 | 26 | i | -27 | . | -2 | -11 | 5
O=S(=O)(CCc1nc2ccccc2o1)c1ccc(Cl)cc1 | -10 | . | i | -14 | -7 | -3 | 0 | -5
NC(=O)CC(NC(=O)Cc1ccc(Br)cc1)c1ccc(NCCc2ccccc2F)c([N+](=O)[O-])c1 (stereo unspecified) | -18 | 17 | i | -14 | 8 | 7 | -3 | -9
CCOc1ccc(NC(=O)CN(C)C(=O)c2cc(C)on2)cc1OCC | . | 1 | i | 4 | -4 | -3 | 0 | .
O=C(Nc1cnc2sccn2c1=O)c1ccccc1Cl | -7 | -45 | i | -28 | -4 | 2 | 2 | 2
CN(C)c1nc(C=C(C#N)C#N)c(Cl)n1-c1ccc(F)cc1 | 3 | -61 | i | . | . | 12 | 13 | 39
O=C(Nc1ccccn1)C1CCN(C(=O)c2ccc(Cl)cc2)CC1 | . | 5 | . | -8 | . | -1 | 2 | .
CCC(c1nnnn1Cc1ccco1)N1CCN(C(=O)c2ccco2)CC1 (stereo unspecified) | 37 | 6 | i | -12 | -9 | -4 | 5 | -1
C=CCNc1nnc(Cc2ccc(C(C)C)cc2)c(=O)[nH]1 | 6 | . | i | -17 | 48 | 2 | -5 | -4
CCOc1cc(/C=C2/C(=N)N3C(=NC2=O)SN=C3S(=O)(=O)C(C)C)ccc1OC(=O)c1ccco1 | 6 | 0 | i | -5 | -7 | -49 | 2 | -9
CCc1nc2c(n1O)CCc1nonc1-2 | -1 | -1 | i | -27 | 5 | 0 | 5 | 0
Cc1ccc(-c2cc(C(=O)Nc3c(C#N)cnn3C)no2)cc1 | -7 | . | i | -16 | -13 | 7 | 0 | -11
CCN(CC)c1ccc(NC(=O)c2ccco2)c(C)c1 | 6 | 2 | i | -17 | -10 | -1 | 3 | -12
